Rango dissoc inh = qHTS Assay for Inhibitors of RanGTP induced Rango (Ran-regulated importin-beta cargo) - Importin beta complex dissociation | Snurportin-1 (Homo sapiens) + GTP-binding nuclear protein Ran (Homo sapiens) + Importin … | Biochemical FRET Rango-importin beta, RanGTP-induced dissociation | Potency, µM (series often up to 46.1 µM), for inactives: at the highest dose activity change, negative = inhibition | 340,000 tested, 0.071% active | AID 540253, 2011; active means falling FRET ratio curve, often poorly fitted, with flat reads before Ran was added; inconclusive means other falling curves, or compound fluorescence or quenching; inactive means flat or rising ratio curve;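 further: potency means the concentration at half of the fitted maximal effect; % of control where 0% means no effect; nearly all actives have a fitted effect of over 45% in size; -100% = wells without RanGTP and RCC1; the record marks most hits as doubtful in a second field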
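Rango FRET biosensor (snurportin-1 IBB flanked by N-terminal EYFP and C-terminal CFP10) at 0.1 uM, with 0.25 uM importin beta in PBS, 1mM DTT, 0.02% Tween-20, 0.1% BSA. 0.6 uM Ran, 2mM GTP and 0.2 uM RCC1 were then added for 45 min at room temperature. Inhibition read as loss of FRET rise.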
Rango-impB inh = qHTS Assay for Inhibitors of Rango (Ran-regulated importin-beta cargo) - Importin beta complex formation. Importin subunit beta-1 (Homo sapiens), Q14974. Rango CFP/YFP FRET sensor + importin beta, 45 min. Potency, µM (titrated, usually from 92.2 µM), inactives show at the highest dose inhibition of complex formation. 340,000 tested, 0.031% active. AID 540263, 2011; active = rising FRET ratio curve, often small or poorly fitted; inconclusive = mostly compound fluorescence or quenching in the first reads; inactive = flat curves in all reads;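 further: potency means the concentration at half of the fitted maximal effect; 0% = DMSO wells and 100% = buffer wells lacking importin beta; nearly all actives have a fitted effect of over 15% in size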
Target sequence (Q14974 whole entry, looked up): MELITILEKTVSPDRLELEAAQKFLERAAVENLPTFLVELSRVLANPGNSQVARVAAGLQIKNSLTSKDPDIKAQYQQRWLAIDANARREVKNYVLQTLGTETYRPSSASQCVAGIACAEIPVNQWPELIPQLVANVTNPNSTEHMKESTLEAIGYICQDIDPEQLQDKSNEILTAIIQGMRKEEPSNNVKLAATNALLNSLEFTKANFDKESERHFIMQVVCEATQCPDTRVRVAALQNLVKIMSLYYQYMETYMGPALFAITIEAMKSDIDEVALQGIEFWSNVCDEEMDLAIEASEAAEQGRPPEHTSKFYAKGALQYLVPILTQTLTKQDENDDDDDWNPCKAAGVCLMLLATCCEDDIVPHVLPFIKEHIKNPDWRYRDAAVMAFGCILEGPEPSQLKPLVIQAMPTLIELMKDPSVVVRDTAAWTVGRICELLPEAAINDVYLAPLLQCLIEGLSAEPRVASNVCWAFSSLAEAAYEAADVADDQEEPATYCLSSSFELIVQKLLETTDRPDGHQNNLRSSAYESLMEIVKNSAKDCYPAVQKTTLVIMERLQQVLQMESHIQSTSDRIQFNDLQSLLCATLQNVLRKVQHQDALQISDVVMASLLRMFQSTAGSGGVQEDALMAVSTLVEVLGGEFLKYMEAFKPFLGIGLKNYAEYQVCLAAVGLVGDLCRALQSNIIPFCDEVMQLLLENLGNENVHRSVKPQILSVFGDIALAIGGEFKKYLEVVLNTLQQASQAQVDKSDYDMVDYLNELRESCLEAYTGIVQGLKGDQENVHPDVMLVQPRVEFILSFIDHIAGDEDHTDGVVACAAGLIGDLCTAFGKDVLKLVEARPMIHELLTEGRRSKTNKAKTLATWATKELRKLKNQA
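FRET biosensor (snurportin 1 IBB flanked by EYFP and cerulean), 50 nM, with compound 5 min, then 0.125 microM importin beta in PBS, 1 mM DTT, 0.02% Tween-20, 0.1% BSA. CFP/YFP ratio read after 45 min at room temperature; pre-read flags interference.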
GLA inh pH 4.5 = qHTS Assay for Inhibitors of Human alpha-Galactosidase at pH 4.5. 230,000 tested, under 10 active. activity change, negative = inhibition, % at 105 µM. Alpha-galactosidase A (Homo sapiens), P06280. purified enzyme, 4-MU-alpha-Gal fluorescence, pH 4.5; inconclusive = small, poorly fitted or top-dose-only inhibition, or a rising curve; inactive = flat fitted curve, though single readings scatter; no compound was filed as active;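 further: 0% = full activity with enzyme and -100% = basal without enzyme; dose as in the result columns while the protocol names 77 µM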
miR-21 FLuc = qHTS Assay for Modulators of miRNAs and/orActivators of miR-21; Potency, µM (series often up to 38.3 µM), for inactives: at the top dose reporter change, positive = more light; HeLa miR-21 FLuc reporter, luciferase, 48 h; 340,000 tested, under 10 active; AID 2288, 2010; active = well fitted rising curve with a large enough effect; inconclusive = small, poorly fitted or top-dose-only effect; inactive = no such curve, though single readings can be large or run the other way;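 further: % of control where 0% means no effect; miR-21 action dims this reporter so a rising signal means less miR-21 action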
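Compounds were titrated across several concentrations (up to approximately 40 uM) and incubated 48 hours with HeLa miR-21-FLuc reporter cells (miR-21 target sequence downstream of FLuc, endogenous miR-21). Readout was firefly luciferase luminescence after lytic detection reagent.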
An asterisk follows results filed as active; ? = inconclusive; / = not tested or not shown; & = joins results of further samples; [ ] = remark or other dose. These rows are one share of the data; rates above refer to the full screens.

SMILES | Rango dissoc inh | Rango-impB inh | GLA inh pH 4.5 | miR-21 FLuc
COc1ccc(C(=O)COC(=O)CCNS(=O)(=O)c2ccccc2)c(OC)c1 | 5% | -4.5% | / | /
CNc1nnc(-c2ccc(OC)cc2)s1 | 19% | 3.1% | 0 | -42%
O=C(COC(=O)c1cccnc1Cl)NCc1cccs1 | 11% | -2.0% | 7 | -1%
COc1ccccc1N1CCN(c2ncnc3nc[nH]c23)CC1 | -13% | 10% | 13 | -13%
CC(Nc1oc(-c2ccco2)nc1C#N)c1ccccc1 (centres undefined) | 37% | ? | 3 | -10%
NC(=O)C1(N2CCCCC2)CCN(CC(=O)Nc2cc(Cl)ccc2Cl)CC1 | -10% | -2.5% | 8 | -3%
CCN(CC(=O)NCc1cccs1)C(=O)/C=C/c1cccc(Cl)c1Cl | -7% | 1.5% | / | /
Cc1ccc(NC(=O)CN(C)C(=O)c2sc3cc(Cl)ccc3c2Cl)cc1 | 5% | -1.1% | / | /
C=CCNC(=O)c1onc(CS(=O)(=O)c2cc(C)cc(C)c2)c1C(=O)NCC=C | 1% | 4.8% | / | /
COc1cc(CN2CCCC(C(=O)Nc3cccc(-n4cccn4)c3)C2)ccc1F (centres undefined) | 2% | -0.1% | / | 7%
COc1ccc(S(=O)(=O)N(C)CC(=O)O)c2ccccc12 | 1% | 6.1% | -6 | -6%
Cc1[nH]nc(SCC(=O)NC2CCCC2)c1[N+](=O)[O-] | 8% | -1.8% | 1 | -7%
CCOC(=O)c1[nH]c(C(=O)O)c(CCN(CC)CC)c1C | 1% | -1.1% | 8 | -4%
O=C(Cc1ccc(F)cc1)N1CCN(c2ccc(F)cc2)CC1 | 8% | -1.5% | / | -3%
NC(=O)NC(=O)COC(=O)CCCc1c[nH]c2ccccc12 | -9% | 2.1% | -12 | 3%
N#Cc1ccccc1-n1c(N)c(C(=O)N2CCCC2)sc1=S | -14% | 3.4% | 0 | 11%
CCN1C(=O)C(O)(C2COC(C)(C)CC2=O)c2cc(Br)ccc21 (centres undefined) | 0% | -1.3% | -3 | ?
Cc1cn(C2C=CC(CO)O2)c(=O)[nH]c1=O (centres undefined) | 5% | -0.6% | 3 | -14%
Cc1ccc(NC(=O)c2ccc(CSc3nnc(C)s3)cc2)c(C)c1 | 4% | -0.8% | -4 | -29%
Cc1cc(C)c2oc(C(=O)Nc3ccc(S(=O)(=O)N4CCCC(C)C4)cc3)cc(=O)c2c1 (centres undefined) | 18% | 0.3% | -12 | -2%
O=C(NCCO)c1nc2ccccc2s1 | 3% | -3.4% | -3 | -32%
COc1ccc(NC(=O)Nc2ccccc2OC)cc1 | -6% | 4.0% | 8 | -54%
COc1ccc(-c2cc(C(=O)Nc3ccccc3N3CCOCC3)c3ccccc3n2)cc1OC | -7% | -0.5% | -8 | 22%
CCOc1ncccc1C(=O)NCc1ccccc1 | / | / | 10 | -17%
CC(C)N(C(=O)Cn1c(Cl)nc2ccccc21)C(C)C | 9% | -5.0% | 1 | 1%
C=CCNC(=S)NNC(=O)c1csc(CC)c1 | 2% | 2.3% | 4 | -48%
C[C@H](CO)N1C[C@H](C)[C@@H](CN(C)CC2CC2)Oc2c(NS(=O)(=O)c3ccc(F)cc3)cccc2C1=O | 20% | -2.5% | / | /
COc1ccc(OC)c2sc(NC(=O)C3=COCCO3)nc12 | 1% | -2.4% | 1 | -21%
COc1ccc(S(=O)(=O)Nc2cccc(S(=O)(=O)N(C)C)c2)cc1[N+](=O)[O-] | 2% | 0.8% | / | /
N/C(=N\OC(=O)COc1ccc(Cl)cc1Cl)c1ccccn1 | 4% | 3.1% | -7 | -16%
COc1ccc(N(C(=O)C2CSC(=O)C2)C(C(=O)NC(C)(C)C)c2ccncc2)cc1 (centres undefined) | 4% | 1.4% | -1 | -2%
NC(=O)CSc1nccn1Cc1ccc2c(c1)OCO2 | 3% | -2.8% | -1 | 3%
CCn1c(/C=C/N(C(C)=O)c2ccccc2)[n+](CC)c2ccc(Cl)cc21 | 0% | -3.2% | 7 | -5%
Cc1ccc(C(c2sc3ncnn3c2O)N2CC(C)CC(C)C2)cc1 (centres undefined) | 23% | -0.3% | -1 | -4%
CC(C)(C)NC(=O)Cn1nnc(-c2ccccc2Cl)n1 | 2% | 2.9% | -5 | -42%
Cn1nnnc1SCc1cc(=O)n2ccsc2n1 | 0% | 0.9% | 3 | 0%
COc1ccc(NS(=O)(=O)c2ccc(NC(=O)C(CCSC)NC(N)=O)cc2)cc1 (centres undefined) | 2% | -0.3% | 8 | -2%
Cc1ccc(-c2nnc(Nc3ccc(C(N)=O)cc3)c3ccccc23)cc1S(=O)(=O)NCC1CCCO1 (centres undefined) | 0% | -1.1% | ? | 0%
O=C(CSc1nccn1-c1ccccc1)c1ccc(Br)cc1 | -5% | 3.8% | -18 | -20%
O=C(NCC(c1cccs1)N1CCOCC1)c1ccccc1NS(=O)(=O)c1cc([N+](=O)[O-])ccc1Cl (centres undefined) | -8% | -2.4% | -6 | 12%
O=C(CN1C(=O)C2CCCCC2C1=O)OCn1nnc2ccccc2c1=O (centres undefined) | 6% | 1.2% | 3 | -6%
C=CCc1cc(C=O)cc(OC)c1OCc1ccc(Cl)cc1 | -2% | -0.2% | 7 | -13%
CCc1ccccc1N(CC(=O)N1CCc2ccccc2C1)S(C)(=O)=O | 7% | 0.2% | / | -9%
CNC[C@H](CC1CCCCC1)NC[C@H](Cc1ccccc1)NCCC12CC3CC(CC(C3)C1)C2 | 1% | 5.2% | / | ?
CC1(C)CC(=O)c2c(nc3ccccc3c2N)C1 | -17% | -0.8% | -1 | -1%
CC(NC(=O)c1ccc(F)cc1)c1ccc2c(c1)CCCC2 (centres undefined) | -10% | -0.3% | -1 | -8%
Cc1cc(C)nc(SCCCn2c(=O)[nH]c3ccccc32)n1 | -1% | 0.8% | -6 | -19%
C/C(N)=C(/C#N)C(=O)CSc1nn(-c2ccc(Cl)cc2)c(=S)s1 | -1% | 0.7% | -7 | -37%
CCOc1cc([N+](=O)[O-])cc2c1C(=O)Nc1ccccc1O2 | -1% | 9.5% | -4 | -17%
O=C(CCc1ccccc1)Nc1ccnn1C1CCN(Cc2ncc[nH]2)CC1 | 2% | -4.0% | / | 2%
CCC1=C2CC[C@H]3C(=O)N(c4ccccc4)C(=O)[C@H]3[C@H]2[C@@]2(C)C(=NCc3ccccc3)OC(=O)N2C1=O | 0% | 0.1% | -5&-4 | 4%
Cc1nc2nc(C)c(NS(=O)(=O)c3ccc(C4CCCCC4)cc3)c(=O)n2[nH]1 | 0% | 8.6% | / | 2%
CCCc1cc(=O)[nH]c(SCC(=O)c2cc(C)n(CC3CCCO3)c2C)n1 (centres undefined) | 19% | 4.6% | / | /
O=C(CN1CCN(c2ncccn2)CC1)NCc1ccccc1 | 1% | 0.0% | -7 | -4%
O=S(=O)(Nc1nc2ccccc2nc1NCCO)c1cccc(Cl)c1 | -9% | ? | -1 | -4%
Nc1nonc1C(=O)N1CCCCC1 | 1% | -2.0% | -10[21.1 µM] | 0%
COc1ccc(C(=O)C2CCCN(Cc3cn[nH]c3-c3ccccc3)C2)cc1OC (centres undefined) | -3% | -0.1% | -4 | -5%
CSCCC(NC(=O)COc1ccccc1)C(=O)N1CCCCCC1 (centres undefined) | ? | -0.3% | / | /
COc1ccc(C(=S)N2CCOCC2)cc1OC(=O)c1ccc([N+](=O)[O-])cc1[N+](=O)[O-] | -3% | 0.1% | / | 0%
O=C(c1ccc(Cl)cc1)C1CCCN(Cc2ccc(Oc3ncccn3)cc2)C1 (centres undefined) | -6% | -5.1% | / | 13%
Further compounds follow.
SMILES | Rango dissoc inh | Rango-impB inh | GLA inh pH 4.5 | miR-21 FLuc
CC(C)(C)c1ccccc1NC(=O)c1ccc2c(c1)SC1=NS(=O)(=O)CCN12 | -5% | 3.6% | -9 | -23%
CC(=O)Nc1ccc(S(=O)(=O)N2CCN=C2SCc2ccc(C)cc2)cc1 | 6% | -0.4% | / | -35%
Cc1nonc1NC(=O)Nc1cccnc1 | 1% | -2.4% | 9 | 2%
COc1ccc(/C=N/NC(=O)c2cccnc2)cc1 | 0% | 0.3% | / | -1%
CCN(CC)S(=O)(=O)c1cc(NC(=O)C(C)N2CCN(Cc3ccc4c(c3)OCO4)CC2)ccc1C (centres undefined) | 1% | -2.5% | -7 | 11%
COC(=O)C1=C(CS(=O)(=O)c2ccccc2)NC(=O)NC1c1ccccc1 (centres undefined) | 0% | 2.0% | / | 0%
Cc1ccc(-n2nnc(-c3ccnc4ccccc34)n2)cc1 | -4% | -0.8% | -11 | -79%
CCOC(=O)c1c(NC(=O)c2ccc(S(=O)(=O)N3CCOCC3)cc2)sc2c1CC(C)(C)NC2(C)C | -6% | -1.3% | / | -4%
CCOC(=O)C1(P(=O)(c2ccc(Cl)cc2)c2ccc(Cl)cc2)CCC1 | 2% | -3.2% | -3 | 6%
O=C1C2CC=C(Cl)CC2C(=O)N1c1ncn[nH]1 (centres undefined) | -16% | 6.1% | 0 | -4%
[2H]C([2H])(CCOS(N)(=O)=O)c1ccccc1 | -13% | -6.3% | / | -5%
CN1CCN(C(=O)C2CCCCC2C(=O)O)CC1 (centres undefined) | 10% | 5.8% | -8 | -2%

Given with tabs: part of the list above.
Compound	Rango dissoc inh	Rango-impB inh	GLA inh pH 4.5	miR-21 FLuc
CCN(CC)S(=O)(=O)c1cc(NC(=O)C(C)N2CCN(Cc3ccc4c(c3)OCO4)CC2)ccc1C (centres undefined)	1%	-2.5%	-7	11%
[2H]C([2H])(CCOS(N)(=O)=O)c1ccccc1	-13%	-6.3%	/	-5%
Cc1cc(C)nc(SCCCn2c(=O)[nH]c3ccccc32)n1	-1%	0.8%	-6	-19%
O=C(NCC(c1cccs1)N1CCOCC1)c1ccccc1NS(=O)(=O)c1cc([N+](=O)[O-])ccc1Cl (centres undefined)	-8%	-2.4%	-6	12%

More structures follow.
SMILES | Rango dissoc inh | Rango-impB inh | GLA inh pH 4.5 | miR-21 FLuc
CCC(C(=O)OC)n1cnc2c(nnn2-c2ccc(C)cc2)c1=O (centres undefined) | 10% | -3.9% | / | -15%
CN1C2=C(C#N)C(c3ccccc3)(C(F)(F)F)NC(=O)N2c2ccccc21 (centres undefined) | -1% | -0.4% | 2 | -8%
CN(C(=O)C1CCOC1)c1nnc(C2CCOC2)s1 (centres undefined) | -8% | -1.8% | -2 | 0%
C=CCN=C1N[C@@H](c2cccc(C(F)(F)F)c2)C(C(=O)OC)=C(C)N1CC | -3% | 0.7% | / | 10%&3%
COc1ccc(CN(CC(=O)NC2CCCC2)C(=O)CN2C(=O)COc3ccccc32)cc1 | -18% | 0.5% | / | -1%
O=c1ccn(Cc2ccc(F)cc2)c2ccnc(C(F)(F)F)c12 | 2% | -2.5% | -3 | 9%
O=Cc1ccc(OCc2nnsc2Cl)cc1 | 3% | -0.8% | 4 | 1%
CN1C(=O)CC(N2CCN(Cc3ccc(Cl)cc3)CC2)C1=O (centres undefined) | -1% | -0.5% | -1 | -5%
COc1ccc(OC)c2c1sc(=NC(=O)C1CC1)n2C | 1% | -0.6% | -9 | -15%
O=C(/C=C/c1ccccc1Cl)Nc1ccc2c(c1)C(=O)NC2=O | -10% | ? | 3 | 0%
CC(=O)O[C@H]1CC[C@@]2(C)[C@@H](CC[C@H]3[C@@H]4CC[C@H](C(C)O)[C@@]4(C)CC(=O)[C@@H]32)C1 (some centres undefined) | 22% | 4.2% | / | /
COc1cccc(NC(=O)CN(C)C(=O)CSCC(=O)Nc2ccc(C)cc2)c1 | -2% | 2.9% | / | /
Cc1ccc(CC(=O)NCC(c2ccco2)N(C)C)cc1C (centres undefined) | -9% | -0.1% | 4 | -4%
O=C(c1cccc([N+](=O)[O-])c1)N1CCOCC1 | -10% | -0.8% | -7 | -8%
COc1ccc(CCNc2ncnc3c2nnn3Cc2ccccc2)cc1 | -14% | 0.7% | / | -1%

Compound activity (PubChem BioAssay)
